Cdc25B block: inhibitors of human Cdc25B phosphatase; actives 0.1% (n = 65,000); inhibition, %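 (compounds tested at 10 µM final in the well)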; recombinant Cdc25B, OMFP fluorescence Ex485/Em525; in the data active = inhibition above about 50%
Target sequence (P30305 whole entry, looked up): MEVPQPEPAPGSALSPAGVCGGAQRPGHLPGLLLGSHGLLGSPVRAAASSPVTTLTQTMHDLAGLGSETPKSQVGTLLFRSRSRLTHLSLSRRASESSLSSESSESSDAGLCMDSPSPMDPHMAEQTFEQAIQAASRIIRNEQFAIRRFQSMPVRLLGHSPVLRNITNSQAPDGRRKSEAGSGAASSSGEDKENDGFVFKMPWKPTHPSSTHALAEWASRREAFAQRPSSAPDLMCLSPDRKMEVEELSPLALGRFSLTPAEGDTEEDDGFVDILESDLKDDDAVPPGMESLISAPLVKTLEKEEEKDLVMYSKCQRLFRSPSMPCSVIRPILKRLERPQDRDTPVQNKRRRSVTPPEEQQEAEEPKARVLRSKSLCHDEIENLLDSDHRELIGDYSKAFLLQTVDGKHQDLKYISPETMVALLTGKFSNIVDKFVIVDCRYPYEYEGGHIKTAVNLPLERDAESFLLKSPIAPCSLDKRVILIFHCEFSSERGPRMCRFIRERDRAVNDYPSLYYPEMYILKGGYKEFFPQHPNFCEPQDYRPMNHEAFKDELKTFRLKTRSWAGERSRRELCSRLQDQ
A340 absorber: absorbance at 340 nm; compound absorbance at 340 nm, fold over control; fold change at 10 µM; 65,000 tested, under 10 active; AID 708;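 active = at 10 µM dose, initial 340 nm absorbance at least 2 fold that of control wells; inactive = change under 2 fold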;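 also: initial absorbance extrapolated from kinetic A340 decline of NADH oxidation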
DUSP1 inh: blocks human MKP-1 phosphatase activity; actives 0.15% (n = 65,000); inhibition, %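 (compounds tested at a single concentration somewhere between 10 and 100 µM)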; AID 374; recombinant MKP-1, OMFP hydrolysis fluorescence; P28562;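 active = inhibition above about 50%, limit read from the data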;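 also: 0% = DMSO max control wells and 100% = wells with enzyme stopped by NaOH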
Target sequence (P28562 whole entry, looked up): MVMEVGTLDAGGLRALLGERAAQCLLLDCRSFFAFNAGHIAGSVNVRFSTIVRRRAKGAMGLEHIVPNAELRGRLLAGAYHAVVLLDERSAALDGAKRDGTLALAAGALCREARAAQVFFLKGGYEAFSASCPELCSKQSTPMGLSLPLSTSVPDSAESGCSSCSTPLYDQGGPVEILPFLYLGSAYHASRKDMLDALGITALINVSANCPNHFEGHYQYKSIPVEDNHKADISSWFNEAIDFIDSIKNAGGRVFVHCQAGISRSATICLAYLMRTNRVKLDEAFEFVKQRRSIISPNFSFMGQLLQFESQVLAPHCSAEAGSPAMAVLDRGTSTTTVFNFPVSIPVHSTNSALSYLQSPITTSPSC
Hsp90 block: displaces geldanamycin probe from tumor Hsp90 | AID 429 | actives 0.35% (n = 64,000) | P07900 | NCI-N417 lysate Hsp90, Cy3B-geldanamycin FP displacement | inhibition, % at 30 µM;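 active = inhibition above 50%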;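 also: 0% = tracer plus lysate wells and 100% = tracer alone without lysate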
HER2 expr 66K: Her2 kinase expression inhibition | P04626 | actives 0.69% (n = 65,000) | HER2 level % of control, % at 10 µM | SKBR-3 HER2 protein level, AlphaScreen, 18-24 h; active compounds read low;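 active = HER2 level under 5% of the carrier-only control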;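 also: 100% = DMSO carrier and 0% = 500 nM PU-H71 HSP90 inhibitor; lower value means stronger loss of Her2 protein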
* marks the source's active call; other numbers are inactive results. A portion of the library; rates above refer to the full screens.

SMILES	Cdc25B block	A340 absorber	DUSP1 inh	Hsp90 block	HER2 expr 66K
CCOC(=O)C1=C(C)NC2=C(C(=O)CC(c3ccc(OC)c(OC)c3)C2)C1c1ccc(C)o1 (configuration not stated)	9	1	2	1	90
CCOC(=O)Cn1c(C)nc2ccccc21	-7	1	11	-2	81
CN(Cc1ccccc1)C(=O)c1ccc2c(c1)OCCO2	-14	1	-3	-1	123
c1ccc(C(Cc2nc(-c3ccccn3)no2)c2ccccc2)cc1	-25	0.98	5	-4	53
CCc1nc2c(n1O)CCc1nonc1-2	3	1.1	21	-3	125
CCOC(=O)Cn1c2c(c(=N)c3ccccc31)CCC2	5	1	-5	-9	102
Cc1nc2cc(S(=O)(=O)N3CCC(C(=O)O)CC3)ccc2n1C1CCCC1	-11	0.99	5	-2	123
O=S(=O)(NCC(c1ccccc1)N1CCNCC1)c1ccc(Cl)cc1 (configuration not stated)	4	1	-2	-1	60
O=C(CCc1ccc(CCC(=O)c2cccs2)s1)c1cccs1	1	1.1	17	-8	64
Cc1cc(C(F)(F)F)nc(Nc2nc(C)c3ccccc3n2)n1	-10	1.1	-5	10	98
COCCNC(=O)CN(c1ccc(OC)c(OC)c1)S(=O)(=O)c1ccc(C)cc1	-13	1	11	-2	81
O=C(NCc1cccs1)C1CC(c2ccccc2O)=NO1 (configuration not stated)	-11	0.99	4	10	81

Shown field by field: 4 of the compounds above
> O=S(=O)(NCC(c1ccccc1)N1CCNCC1)c1ccc(Cl)cc1 (configuration not stated)
  Cdc25B block = 4 | A340 absorber = 1 | DUSP1 inh = -2 | Hsp90 block = -1 | HER2 expr 66K = 60

> O=C(CCc1ccc(CCC(=O)c2cccs2)s1)c1cccs1
  Cdc25B block = 1 | A340 absorber = 1.1 | DUSP1 inh = 17 | Hsp90 block = -8 | HER2 expr 66K = 64

> Cc1cc(C(F)(F)F)nc(Nc2nc(C)c3ccccc3n2)n1
  Cdc25B block = -10 | A340 absorber = 1.1 | DUSP1 inh = -5 | Hsp90 block = 10 | HER2 expr 66K = 98

> COCCNC(=O)CN(c1ccc(OC)c(OC)c1)S(=O)(=O)c1ccc(C)cc1
  Cdc25B block = -13 | A340 absorber = 1 | DUSP1 inh = 11 | Hsp90 block = -2 | HER2 expr 66K = 81

(list continues)
SMILES	Cdc25B block	A340 absorber	DUSP1 inh	Hsp90 block	HER2 expr 66K
CCn1c(COc2ccc(Cl)cc2)nnc1SCC(=O)Nc1ccc2c(c1)OCCO2	1	1	-20	0	113
Oc1ccccc1C(=S)N1CCCCC1	-5	1.1	2	-1	111
COc1ccc(S(=O)(=O)N(CCCN2CCOCC2)Cc2ccc(OC)c(OC)c2)cc1	-4	0.95	-3	-1	101
CCN(CC)C(=O)C1=C(C)Nc2nnnn2C1c1cccnc1 (configuration not stated)	3	0.99	-8	-5	62
CCOC(=O)Nc1cccc(NC(=O)c2cc(OC)cc(OC)c2)c1	-4	1.1	-1	-1	81
c1csc(-c2nn3c(Cn4cnc5ccccc54)nnc3s2)c1	-6	1.1	12	3	102
CS(=O)(=O)N(CC(=O)NCCC1=CCCCC1)c1ccc2c(c1)OCO2	-7	1	-3	-3	83
O=S(=O)(NCC(c1cccnc1)N1CCN(Cc2ccccc2)CC1)c1ccccc1 (configuration not stated)	-11	1	-5	-5	99
CCOc1ccccc1-c1nc2c([nH]1)c(=O)n(C)c(=O)n2C	4	1.1	10	-7	81
C=CCn1c(CCNC(=O)c2cccs2)nnc1SCC(=O)Nc1cccc(C(C)=O)c1	-1	1	5	-4	93
Clc1cccc(-c2nn3c(Cn4cnc5ccccc54)nnc3s2)c1	3	0.99	8	-4	65
COc1cc(C)c(Cl)c(C)c1S(=O)(=O)NCc1ccc2c(c1)OCO2	-8	1.1	0	-1	104

Record cards (already shown). Screens in order: Cdc25B block, A340 absorber, DUSP1 inh, Hsp90 block, HER2 expr 66K
CCOC(=O)Nc1cccc(NC(=O)c2cc(OC)cc(OC)c2)c1 is listed with -4, 1.1, -1, -1, 81
COc1ccc(S(=O)(=O)N(CCCN2CCOCC2)Cc2ccc(OC)c(OC)c2)cc1 is listed with -4, 0.95, -3, -1, 101

Next section
SMILES	Cdc25B block	A340 absorber	DUSP1 inh	Hsp90 block	HER2 expr 66K
Cc1c(N=C2NC(=O)C(CC(=O)Nc3ccc(Cl)cc3)S2)c(=O)n(-c2ccccc2)n1C (configuration not stated)	5	1	7	-7	122
CCOC(=O)N1CCN(S(=O)(=O)Cc2ccccc2)CC1	-4	1	24	1	86
CCN1CCCC1CNS(=O)(=O)c1ccc(C(=O)Nc2ccccc2)cc1 (configuration not stated)	-11	1	3	-3	70
COc1ccc(/C(O)=C2\C(=O)C(=O)N(c3cc(C)on3)C2c2ccc(OC)c(OC)c2)cc1OC (configuration not stated)	11	1.1	-8	4	92
CCOc1cc(S(=O)(=O)NCc2ccc3c(c2)OCO3)c(C)cc1C	-9	1.1	24	1	86
CCCOc1ccc(C(=O)C(c2ccccc2)N2CCOCC2)cc1 (configuration not stated)	-13	0.99	-1	0	96
COc1ccccc1NC(=O)C1=C(C)Nc2nnnn2C1c1ccncc1 (configuration not stated)	1	0.97	9	0	82
CCN(CC)C(=O)CSc1nnc2sc3ccccc3n12	-18	1	-9	2	67
CCN1C(=O)CSc2ccc(C(=O)NC3CCCCC3)cc21	-6	1	-14	-1	97
CS(=O)(=O)N1CCN(c2nnc(-c3ccccc3)c3ccccc23)CC1	-5	1.1	-9	0	98
O=C(NCc1cccs1)c1cnc2sccn2c1=O	-5	1.1	0	-1	97
CCOC(=O)Cn1c(=O)n(CC(=O)OCC)c2ccccc21	-8	1	6	-1	96
c1ccc(SCc2nc(-c3ccccn3)no2)cc1	1	1.1	-3	-3	79
COC(=O)c1ccc(COC(=O)c2c(C)nn(Cc3ccccc3Cl)c2Cl)o1	-4	1	8	1	74
O=c1cc(C23CC4CC(CC(C4)C2)C3)[nH][nH]1	-7	1	2	2	88
Cn1c(=O)n(CC(=O)N2CCN(c3nnc(-c4ccccc4)c4ccccc34)CC2)c2ccccc21	-16	1	34	-9	95
Cc1ccccc1OCc1nc(-c2ccc(NC(=O)c3ccc4c(c3)OCO4)cc2)no1	6	1.1	14	3	74
CC(C)NC(=O)N(O)C1N(Cc2ccc3c(c2)OCO3)C(=S)SC1(C)C (configuration not stated)	2	1	20	0	77
Cc1ccc(-c2nnc(SCC(=O)Nc3nc4c(s3)CCCC4)n2C)cc1	-2	1	-5	2	129
COc1cc2c(cc1OC)CN(C(=O)c1ccc(OC)c(S(=O)(=O)N3CCOCC3)c1)CC2	3	1	10	-6	86
Cn1c(=O)c2[nH]c(-c3cccnc3)nc2n(C)c1=O	4	1.1	0	-10	115
Cc1nn(-c2ccccc2)c2[nH]c(=O)c(CNCc3ccc4c(c3)OCO4)cc12	1	0.98	34	-6	34
CCCOC(=O)c1cccc(NC(=O)C(C)(C)C)c1	-12	1	5	-5	95
CC(C)Nc1nc(N(c2ccccc2)c2ccccc2)nc(-n2ccnc2)n1	-5	1.1	-18	-1	94

Some of the entries so far, with two lines to a compound.
Below each SMILES: Cdc25B block	A340 absorber	DUSP1 inh	Hsp90 block	HER2 expr 66K
> c1ccc(SCc2nc(-c3ccccn3)no2)cc1
→ 1	1.1	-3	-3	79
> COC(=O)c1ccc(COC(=O)c2c(C)nn(Cc3ccccc3Cl)c2Cl)o1
→ -4	1	8	1	74
> O=c1cc(C23CC4CC(CC(C4)C2)C3)[nH][nH]1
→ -7	1	2	2	88

(continued)
SMILES	Cdc25B block	A340 absorber	DUSP1 inh	Hsp90 block	HER2 expr 66K
Nc1nc(-c2ccccc2)nc(-c2ccccc2O)n1	0	1.1	6	4	42
O=C(Nc1ccccc1)c1ccc(NCc2cccnc2)c(S(=O)(=O)N2CCOCC2)c1	-8	1.1	9	-10	69
Cc1ccc(NC(=O)c2ccccc2)s1	-5	1.1	-3	-6	124
Cc1cccc(N2C(N)=NC(N)=NC23CCCCC3)c1	8	1	-1	2	88
Cc1ccc(C2(c3ccc(C)cc3)NC(=O)N(Cc3c(C)noc3C)C2=O)cc1	-4	1	20	1	109
Cc1cc(-c2ccccc2)nc(SCc2ccc(C(=O)O)o2)n1	-11	0.99	2	-1	107
CCCN1C(=O)c2ccc(C(=O)NC3CCCCC3)cc2C1=O	-7	1.1	23	-1	97
CSCC[C@H](NC(=O)OC(C)(C)C)C(=O)N1CCC(C(=O)N[C@H](C(=O)O)C(C)C)CC1	1	1	-14	0	91
COCCn1c(=NC(=O)CSC(C)=O)sc2cc(OC)ccc21	-12	1.1	1	-3	65
CSCC[C@H](NC(=O)OC(C)(C)C)C(=O)N1CCC(C(=O)N[C@@H](C)C(=O)O)CC1	4	0.99	0	-2	98
CCCOc1ccc(/C(O)=C2/C(=O)C(=O)N(CCN(C)C)C2c2ccc(O)c(OC)c2)cc1 (configuration not stated)	-3	1.1	-10	-4	92
O=S(=O)(Nc1cccc(C(F)(F)F)c1)c1cnc[nH]1	-14	0.96	-6	0	98
C=CCn1c(CCNC(=O)c2ccccc2F)nnc1SCC(=O)Nc1nc(C)cs1	-6	1.1	2	-2	84
COc1cccc(CNC(=O)C2CCCN(c3nc4ccccc4o3)C2)c1 (configuration not stated)	-7	1	31	-2	97
COc1ccc(S(=O)(=O)N2CCCN(CCC(=O)Nc3cccc(C(F)(F)F)c3)CC2)cc1	-20	0.96	29	-3	88
O=C(COc1ccccc1)N1CCc2ccccc2C1	-13	1.1	-14	-1	81
O=C(NCc1cccs1)C1CCCN(c2nc3ccccc3o2)C1 (configuration not stated)	-2	0.99	30	0	71
Cc1ccc(C2C3=C(CC(C)(C)CC3=O)NC3=C2C(=O)CC(C)(C)C3)o1	12	1	6	-5	105
CC(C)=CC(=O)Nc1nnc(-c2cccnc2)s1	-25	1	-1	-4	141
COc1ccc(C(=O)N2CCC(n3c(C)nc4cc(F)ccc43)CC2)cc1OC	-3	0.98	-6	0	109
CCOC(=O)N1CCN(c2nc(N(c3ccccc3)c3ccccc3)nc(-n3ccnc3)n2)CC1	12	0.99	12	4	111
Cc1cc(C)n(-c2nc(-c3cccc(Cl)c3)cs2)n1	-6	1.1	8	1	110
O=C(NCC1CCCO1)C1CCCN(c2ncccn2)C1 (configuration not stated)	-12	1	26	3	91
CCOC(=O)C(NC(=O)CC)(Nc1sc2c(c1C(=O)OC)CCN(C)C2)C(F)(F)F (configuration not stated)	2	1	7	-2	112

Ordered by length of the SMILES (smallest number first): 3 of the compounds above.
SMILES	Cdc25B block	A340 absorber	DUSP1 inh	Hsp90 block	HER2 expr 66K
Cc1ccc(C2C3=C(CC(C)(C)CC3=O)NC3=C2C(=O)CC(C)(C)C3)o1	12	1	6	-5	105
CCOC(=O)N1CCN(c2nc(N(c3ccccc3)c3ccccc3)nc(-n3ccnc3)n2)CC1	12	0.99	12	4	111
COc1ccc(S(=O)(=O)N2CCCN(CCC(=O)Nc3cccc(C(F)(F)F)c3)CC2)cc1	-20	0.96	29	-3	88

(continued)
SMILES	Cdc25B block	A340 absorber	DUSP1 inh	Hsp90 block	HER2 expr 66K
CCC(=O)c1ccc(OCC(=O)N2CCc3cc(OC)c(OC)cc3C2)cc1	-5	1	15	-3	90
CCC(C)(C)n1nnnc1C(c1cccs1)N1CCc2ccccc21 (configuration not stated)	-1	1	2	-2	79
CCC(C)(C)n1nnnc1CN1CCN(c2nc3cc(OC)ccc3cc2C#N)CC1	7	1	3	-2	87
COc1ccc(OCC(=O)Nc2cccc(C(C)=O)c2)cc1	-15	1	9	-4	106
COc1ccc(S(=O)(=O)N2CCC(C(=O)N3CCCCC3)CC2)cc1OC	-3	1	4	2	108
CC(CC(=O)c1cccs1)CC(=O)c1cccs1	7	1.1	9	1	99
Cc1noc(C)c1CSc1nnc(-c2ccncc2)n1-c1ccc(Cl)c(Cl)c1	-6	1	23	-3	106
O=C(c1cc(-c2ccncc2)nc2ccc(Br)cc12)N1CCN(c2ccccn2)CC1	-13	1.1	21	137*	37
CCN(CC)S(=O)(=O)N1CCC(C(=O)NCC2COc3ccccc3O2)CC1 (configuration not stated)	-8	1	1	1	90
COc1ccc(-c2cc(C(N)=O)nc(N3CCCCCC3)n2)cc1	6	1.1	-2	0	120
O=C(O)C1CCCN1C(=O)Nc1ccc(F)cc1 (configuration not stated)	-9	0.98	-17	-1	117
CN(Cc1nc(-c2ccccn2)no1)S(=O)(=O)c1ccc(Br)cc1	-11	1	0	-3	83
CCn1c(=N)c(C(=O)OC)cc2c(=O)n3ccccc3nc21	-4	1	0	3	125
Cc1cc(C)c(NC(=O)C2CCCN2CCO)c(C)c1 (configuration not stated)	-5	1	7	-3	135
O=C(NCCCn1ccnc1)c1ccc2c(c1)OCCO2	-8	1	11	8	98
CC(OC(=O)c1cc(=O)[nH]c2ccccc12)c1ccccc1 (configuration not stated)	-11	1.1	17	1	136
c1ccc(CCc2nn3c(Cn4nnc5ccccc54)nnc3s2)cc1	0	1	-14	-5	235
FC(F)(F)c1ccc(N2CCN(c3cc(-c4ccccc4)nc4ncnn34)CC2)nc1	6	1	29	-4	54
CCOC(=O)CNC(=O)C1CCCN(c2ncccn2)C1 (configuration not stated)	6	1	44	-2	83
CCCCCn1c(N)c(C#N)c2nc3ccccc3nc21	-6	1.1	23	-5	133

Assay outcomes (PubChem BioAssay)
